# Screening data deposited in PubChem by National Center for Advancing Translational Sciences (NCATS).
# HPGD inh = qHTS Assay for Inhibitors of HPGD (15-Hydroxyprostaglandin Dehydrogenase). 4.3% of 150,000 active. AID 894, 2007. 15-hydroxyprostaglandin dehydrogenase [NAD(+)] (Homo sapiens), P15428. Potency, µM, for inactives: at the highest dose activity change, negative = inhibition, usual class: inhibitors. purified HPGD, NADH fluorescence kinetic, PGE2 substrate; active = well fitted inhibition curve with a large enough effect (not every such curve was filed as active); inconclusive = small, poorly fitted or top-dose-only effect, or another doubt; inactive = no such curve, though single readings can be large or run the other way;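 note: top concentration of the series not given in the record; plate controls included wells without enzyme; inactives centre near -10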
# Target sequence (P15428 whole entry, looked up): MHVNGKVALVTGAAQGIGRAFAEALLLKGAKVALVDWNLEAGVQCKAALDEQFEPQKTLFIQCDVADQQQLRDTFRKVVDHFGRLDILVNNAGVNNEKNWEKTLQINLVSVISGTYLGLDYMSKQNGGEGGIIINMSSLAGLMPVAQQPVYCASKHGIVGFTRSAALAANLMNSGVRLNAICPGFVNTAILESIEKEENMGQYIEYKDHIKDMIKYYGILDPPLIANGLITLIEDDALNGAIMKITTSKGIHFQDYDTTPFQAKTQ
#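 NADH formation kinetics: reaction with 30 uM PGE2 and 1 mM NAD+ (final), 20 nM enzyme, Tris-HCl pH 8 with Tween 20, after 15 min compound preincubation at room temperature. Fluorescence change, last versus first of five reads.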
# The depositor's hits bear a star; ? = inconclusive. % is set by controls: 0 for no effect and ±100 for the full control effect; potency is the fitted concentration of half-maximal effect. The list is partial (hit frequency here may not be typical).
SMILES,HPGD inh
Cc1cnn(C(=O)c2oc3ccccc3c2C)c1,-12%
COCCN1C(=O)N[C@@H](c2cccs2)C(C(C)=O)=C1C,-6%
O=C(Nc1cccc(Cl)c1)N(Cc1nc2ccccc2c(=O)[nH]1)Cc1cccs1,-3%
COc1ccc(NC(=O)c2sc3nc(Cc4ccccc4)cc(C(F)(F)F)c3c2N)cc1OC,-10%
COc1ccc(OCC(=O)Nc2nnc(C)s2)cc1,-14%
O=C(NCc1ccc2c(c1)OCO2)C1CCCN(S(=O)(=O)c2cccs2)C1 (stereo not drawn),-9%
COC(=O)COc1ccc(S(=O)(=O)NCc2ccncc2)cc1,-10%
COc1ccc(C(=O)Cn2c(N3CCOCC3)nc3c2c(=O)n(C)c(=O)n3C)cc1,-3%
Fc1ccc(-c2nnc(CSc3nnc4ccccn34)o2)cc1,-7%
COc1ccc(-n2nc(C(=O)O)c3ccccc3c2=O)c(OC)c1,0%
CC(C)n1cc(NC(=O)C2CC(c3cccc(Br)c3)=NO2)cn1 (stereo not drawn),-4%
Cc1ccc(C(=O)OCC(=O)NCc2ccco2)cc1,-29%
O=C(CCCSc1nc2ccccc2[nH]1)Nc1ccccc1,-27%
CC(C)c1ccc(SCc2noc(C(=O)NCC3CCCO3)c2C(=O)O)cc1 (stereo not drawn),7.9µM*
c1ccc(-c2nn3c(-c4ccccc4)nnc3s2)cc1,-22%

# Of the compounds above, these have a furan ring, fused or not.
SMILES,HPGD inh
Cc1cnn(C(=O)c2oc3ccccc3c2C)c1,-12%
Cc1ccc(C(=O)OCC(=O)NCc2ccco2)cc1,-29%

# Carrying on.
SMILES,HPGD inh
Nc1nn(S(=O)(=O)c2cccc3nsnc23)cc1-c1ccc(Br)cc1,-14%
O=C(NC1CCCC1)c1nc2c(nnn2Cc2ccccc2Cl)c(=O)[nH]1,?
COCc1cc(C)nc2sc(C(=O)N3CCN(c4ccccc4)CC3)c(N)c12,?
O=C1C(NS(=O)(=O)c2cccs2)=C(N2CCN(c3ccccc3)CC2)C(=O)c2ccccc21,-25%
CCOC(=O)c1nn(-c2cccc(Cl)c2)c2nc(CC(C)C)c(C#N)c(=O)n12,6%
O=C(Nc1ccccc1)N1CCCC2CCCCC21 (stereo not drawn),-9%
CC(C(=O)OCC(=O)c1c(N)n(C)c(=O)n(C)c1=O)N1C(=O)c2ccccc2C1=O (stereo not drawn),-8%
Cn1c(CCCNC(=O)c2ccccc2)nc2ccccc21,-5%
O=C1CSC(c2c(F)cccc2Cl)N1c1cccc(F)c1 (stereo not drawn),-14%
COc1cc2[nH]c(=S)nc(NCCCOC(C)C)c2cc1OC,18µM*
CC(C)Sc1nc2sc(-c3ccccc3)cc2c(=O)n1N,-25%
COc1cccc(-c2csc(N3CCN(S(=O)(=O)c4ccc(F)cc4)CC3)n2)c1,-11%
CCOc1cc(/C=N\O)cc(Cl)c1OCC,-5%
CCOC(=O)CN1C(=O)COc2ccc(Cl)cc21,-10%
O=[N+]([O-])c1cccc(-c2nc(-c3ccccc3)c(-c3cccs3)[nH]2)c1,-16%

# 5 compounds already listed, sorted by the number in HPGD inh, falling.
SMILES,HPGD inh
COc1ccc(C(=O)Cn2c(N3CCOCC3)nc3c2c(=O)n(C)c(=O)n3C)cc1,-3%
O=C(NCc1ccc2c(c1)OCO2)C1CCCN(S(=O)(=O)c2cccs2)C1 (stereo not drawn),-9%
COc1ccc(NC(=O)c2sc3nc(Cc4ccccc4)cc(C(F)(F)F)c3c2N)cc1OC,-10%
COc1cccc(-c2csc(N3CCN(S(=O)(=O)c4ccc(F)cc4)CC3)n2)c1,-11%
O=C1C(NS(=O)(=O)c2cccs2)=C(N2CCN(c3ccccc3)CC2)C(=O)c2ccccc21,-25%

# The list goes on:
SMILES,HPGD inh
COC(=O)[C@@]1(Cc2ccc(OC)cc2)[C@H]2c3cc(C(=O)N4CCCC4)n(Cc4cc(C)n(C)n4)c3C[C@H]2CN1C(=O)c1ccccc1,-9%
CCOC(=O)C1=C(c2ccccc2)Nc2ncnn2C1c1ccccn1 (stereo not drawn),-13%
COc1cc2c(cc1NC(=O)c1ccncc1)oc1ccccc12,-6%
O=C(CC12CC3CC(CC(C3)C1)C2)N/N=C/c1ccc([N+](=O)[O-])o1,-11%
O=C(NCCc1ccc(Cl)cc1)Nc1cccc(Cl)c1,-8%
Cc1ccc(C)c(NC(=S)NNC(=O)c2csc(C)c2)c1,-6%
O=C(c1ccc(C#CC2(O)CCCCC2)cc1)N1CCOCC1,14µM*
O=C(CSCc1ccc(Cl)cc1)Nc1nccs1,-7%
CCn1cc(Br)c(C(=O)Nc2ccc(C(=O)OC(C)C)cc2)n1,-28%
Cc1cc(Cl)ccc1OCC(=O)NC1CCCC1,14µM*
COc1ccc(Cl)cc1NC(=O)/C=C\C(=O)O,-3%
COc1ccc(S(=O)(=O)N(CC(=O)O)c2ccccn2)cc1,?
COc1ccc(CCN(Cc2nc(-c3ccccc3)no2)Cc2nc(-c3ccccc3)no2)cc1OC,-6%
Cc1c(C#N)c(N=CN(C)C)c(C(=O)c2ccccc2)n1-c1ccc(Br)cc1,-1%
NC(=O)c1ccccc1-c1nc(-c2ccccc2)no1,-5%
O=C1CN(C(=O)COC(=O)C2CC(=O)N(Cc3ccco3)C2)c2ccccc2N1 (stereo not drawn),-12%
c1ccc(-c2csc(N3CCOCC3)n2)cc1,-11%
Clc1ccc(OCCN2CCCCC2)cc1Cl,0%
O=C(c1cc(Br)ccc1O)c1cc(Br)ccc1O,2.8µM*
Clc1ccc(Cl)c(Nc2ccnc(SCc3ccccc3)n2)c1,-1%
O=S(=O)(c1ccc(-c2csc(Nc3ccc(Br)cc3)n2)cc1)N1CCCC1,?
OCC1=CC[N+]2(Cc3ccccc3)CCC(O)[C@@H]12 (stereo partly drawn),2%
C(=N\N1CCOCC1)/c1cccs1,-19%
Cc1cc2oc(=O)cc(CSc3nnc(C)n3N)c2cc1C(C)C,?
CCOC(=O)Cc1csc(NC(=O)c2cccnc2)n1,-9%
O=C(Nc1cccnc1)c1sc(Nc2ccccc2)nc1-c1ccccc1,?
CCOC(=O)c1c(NC(=S)NC(=O)c2ccc(Cn3cc(Cl)cn3)o2)sc2c1CCC(C)C2 (stereo not drawn),-15%
CC(C)[C@@H](C)/C=C\[C@@H](C)[C@@H]1CC[C@H]2C3=CC=C4C[C@@H](O)CC[C@]4(C)[C@H]3CC[C@]21C,-4%
O=C(O)C1CC=CCC1C(=O)Nc1ccccc1 (stereo not drawn),0%
O=C(c1ccccc1)N1CCN(c2ccc([N+](=O)[O-])c(NCc3ccco3)c2)CC1,-19%
COc1ccc(N=C2SC(C(=O)Nc3ccc(OC)cc3)CC(=O)N2CCN2CCOCC2)cc1 (stereo not drawn),2%
CCCCC/C=C\C\C=C/C=C/C=C/[C@@H](SCC(N)C(=O)O)[C@@H](O)CCCC(=O)O (stereo partly drawn),2%
CC1(C)Cc2ccccc2-c2nnc(SCc3ccccc3)n21,-7%
Cc1ccc(NC(=O)Cn2nnc(C(=O)NCc3ccco3)c2N)cc1,-12%
COC(=O)/C=c1/s/c(=C(/C#N)C(=O)NCc2ccccc2)n(-c2ccccc2)c1=O,-11%
c1ccc(Nc2nc(-c3cccs3)cs2)nc1,-6%
CCC(C)NCC(=O)Nc1cc(S(=O)(=O)N(CC)c2ccccc2)ccc1Cl (stereo not drawn),-2%
N#CC(C(=O)Nc1ccccc1)=C1CCCCC1,-13%
O=C(NCCCn1ccnc1)C1CC(c2cccc(Br)c2)=NO1 (stereo not drawn),-8%
COc1ccc(N(C(=O)c2cccnc2)S(=O)(=O)c2ccc3c(c2)n(C)c(=O)n3C)cc1,-4%
CCCC1=C(C(=O)OCC)C(c2ccc(F)cc2)n2ncnc2N1 (stereo not drawn),-28%
CN(C)c1ccc(N=Nc2ccccc2C(=O)OCC(=O)N(C)c2ccccc2)cc1,-22%
Cc1cc(C)c2[nH]c(=O)c(CN(CC3CCCO3)S(=O)(=O)c3ccc4c(c3)OCCO4)cc2c1 (stereo not drawn),27%
COc1cc(SC)ccc1C(=O)NCCOc1ccc(Cl)cc1,?
Cn1c(-c2ccccc2O)cc2ccccc21,?
CCS(=O)(=O)NCCCCc1ccccc1,-5%
Cc1ccc2[nH]c(=O)c(CN(Cc3ccc4c(c3)OCO4)Cc3nnnn3C3CCCC3)cc2c1,-27%
Cc1cc(C(=O)Nc2cccnc2)no1,-12%
CNc1nc(SC)nc(N2CCOCC2)n1,4%
CCOC(=O)c1c(NC(=O)CCCN2CCOCC2)sc2c1CC(C)(C)OC2,-6%
O=C(Nc1ncnc2sc3c(c12)CCCCC3)c1ccco1,?
CCOc1cc(C)c(C(C)C)cc1S(=O)(=O)n1ccc(C)n1,-8%
C[C@@H]1[C@H](C)CC[C@@]2(C(=O)O)CC[C@]3(C)C(=CC[C@H]4[C@@]5(C)CC[C@@H](O)C(C)(C)[C@@H]5CC[C@@]43C)[C@@H]12,-2%
c1ccc(-n2nnnc2NCCCN2CCOCC2)cc1,0%
CC(C)(C)C(=O)Nc1ccc(C(=O)NNC(=O)Cc2ccccc2)cc1,-8%
CCOc1ccc(CCNC(=O)C2CCCN(c3nn4c(=O)cc(C)nc4s3)C2)cc1 (stereo not drawn),-1%
O=C1CC(O)(c2ccccc2)C(c2ccccc2)=C1c1ccccc1 (stereo not drawn),-4%
COc1ccc(NS(=O)(=O)CC23CCC(CC2=O)C3(C)C)cc1 (stereo not drawn),-14%
CC1(C)C/C(=N\O)c2cc3c(nc2C1)CCCC3,-3%
COc1ccc(NC2CC(=O)N(CCc3ccccc3)C2=O)cc1 (stereo not drawn),-6%

# Remaining list, next part.
SMILES,HPGD inh
COc1cc(C2C(C(=O)c3ccc(C)o3)=C(O)C(=O)N2c2cc(C)on2)cc(OC)c1OC (stereo not drawn),-12%
O=C(Cc1ccccc1)n1nc(-c2ccco2)nc1SCc1ccccc1,4.5µM*
CC1CC2C3CCC4=CC(=O)C=C[C@@]4(C)[C@]3(F)C(O)C[C@]2(C)[C@]1(O)C(=O)COP(=O)(O)O (stereo partly drawn),-18%
Cc1cc(C)c(NC(=O)CCCN2CCOCC2)c(C)c1,3%
COc1ccc2[nH]c(=O)c(CN(C(=O)c3ccccn3)C3CCCCC3)cc2c1,?
CCOC(=O)c1sc(NC(=O)c2ccc(Br)o2)cc1C,?
CCOC(=O)CSc1nnc(CNc2cccc(Cl)c2)n1C,-9%
CCn1c(C(=O)N2CCC(C(=O)NCCCSC3CCCCC3)CC2)cc2sccc21,-15%
O=C(Nc1nc2ccccc2n1Cc1ccccc1)c1ccc(COc2ccccc2[N+](=O)[O-])o1,-11%
COc1cc(NC(=O)CN(C)S(=O)(=O)c2ccc(C)cc2)cc(OC)c1,1%
Cc1c(NC(=O)CN2CCN(C(c3ccccc3)c3ccccc3)CC2)c(=O)n(-c2ccccc2)n1C,-7%
CCOc1ccc(N(C)S(=O)(=O)c2ccc3[nH]cc(C(=O)NCC4CCCO4)c(=O)c3c2)cc1 (stereo not drawn),14µM*
CCOC(=O)CSc1c(-c2cccs2)[nH]c2ccccc12,-20%
O=C(Cn1cc2c(n1)CCCC2)NC1CCCCCC1,?
CC12CCC(C(=O)Nc3ccccc3Cl)(C(Br)C1=O)C2(C)C (stereo not drawn),-7%

# Filtered by structure: the entries above containing bromine (9)
SMILES,HPGD inh
CC(C)n1cc(NC(=O)C2CC(c3cccc(Br)c3)=NO2)cn1 (stereo not drawn),-4%
Nc1nn(S(=O)(=O)c2cccc3nsnc23)cc1-c1ccc(Br)cc1,-14%
CCn1cc(Br)c(C(=O)Nc2ccc(C(=O)OC(C)C)cc2)n1,-28%
Cc1c(C#N)c(N=CN(C)C)c(C(=O)c2ccccc2)n1-c1ccc(Br)cc1,-1%
O=C(c1cc(Br)ccc1O)c1cc(Br)ccc1O,2.8µM*
O=S(=O)(c1ccc(-c2csc(Nc3ccc(Br)cc3)n2)cc1)N1CCCC1,?
O=C(NCCCn1ccnc1)C1CC(c2cccc(Br)c2)=NO1 (stereo not drawn),-8%
CCOC(=O)c1sc(NC(=O)c2ccc(Br)o2)cc1C,?
CC12CCC(C(=O)Nc3ccccc3Cl)(C(Br)C1=O)C2(C)C (stereo not drawn),-7%

# (listing goes on)
SMILES,HPGD inh
Cc1cc(C)c(C2C(C#N)=C(N)Oc3n[nH]c(C)c32)cc1CN1CCCC1 (stereo not drawn),-9%
Cc1nn(-c2ccccc2)c(C)c1C1C(C#N)=C(N)Oc2n[nH]c(C)c21 (stereo not drawn),3%
Cc1ccc(Cn2ccc(NC(=O)c3nc4ncccn4n3)n2)cc1,-6%
O=C(O)COc1cccc2ccccc12,?
COc1ccc(NC(=O)c2cc(S(=O)(=O)N(C)C)ccc2N2CCCC2)cc1Cl,-6%
CCOc1ncccc1C(=O)Nc1ccc2c(C)cc(=O)oc2c1,?
Cc1cc(C(=O)Nn2c(C3CCCCC3)nc3ccccc3c2=O)ccc1[N+](=O)[O-],-5%
O=C(NC1CCS(=O)(=O)C1)Oc1ccc(Cl)cc1 (stereo not drawn),-7%
Cc1cccnc1NC(=O)COc1ccc2oc3c(c2c1)CCCC3,0%
CSc1ccc(S(=O)(=O)Nc2ccc(N3CCOCC3)c(Cl)c2)cc1,-16%
O=C(NCc1cccnc1)c1ccc(CS(=O)(=O)Cc2ccc(Cl)cc2)o1,-1%
CCC(CO)NC1=C([N+](=O)[O-])C(=O)CC(C)(C)C1 (stereo not drawn),-16%
c1ccc(-c2nnc(CSc3nnc(-c4cccs4)o3)o2)cc1,16µM*
C/C=C(/C)C(=O)OC1C(OC(C)=O)[C@@]2(CO)C(O)C[C@@]3(C)C(=CCC4[C@@]5(C)CCC(OC6OC(C(=O)O)[C@@H](O[C@@H]7OC(CO)C(O)C(O)C7O)C(O)[C@H]6O[C@@H]6OC(CO)C(O)C(O)C6O)[C@](C)(CO)C5CC[C@@]43C)C2CC1(C)C (stereo partly drawn),?
Clc1cccc(-c2nn3c(COc4ccccc4)nnc3s2)c1,-10%
